# From PubChem BioAssay
# AID504770: growth inhibition of E. coli YBA685, primary screen, V. cholerae RctB inhibitors | E. coli YBA685 rctB-dependent plasmid, OD600 growth, 3 h; active compounds read low | z-score (no concentration beside the values) | actives 0.27% (n = 130,000) | AID 504770, 2011;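 active = z-score under -2 on both plates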;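 note: wells of about 30 µL received 100 nL stock; score is relative to mean and SD of the test wells; the first replicate is given; strong numbers were not always called active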
# CapD inh: Bacillus anthracis CapD inhibitors, primary screen, biochemical, fluorescence intensity; purified CapD enzyme, fluorescence intensity read-out; active compounds read low; some hits fall short of the stated cut; z-score (concentration not given with the values); AID 492967, 2010; CapD gamma-glutamyltranspeptidase (Bacillus anthracis Ames Ancestor); actives 0.23% (n = 140,000);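 active = z-score under -4 in either of two replicates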;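 note: stock transfer was 100 nL into about 40 µL; score is relative to mean and spread of the plate; one replicate is shown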
# Starred values were filed as active, the others as inactive; nt = not tested or not shown.
entry	SMILES	AID504770	CapD inh
1	Cc1c(O)ccc2c(CN(C)Cc3ccc(Cl)cc3)cc(=O)oc12	2.2	nt
2	O=C(CSc1nnnn1-c1ccccc1)N1CCCCC1	0.3	nt
3	Cc1ccccc1C(=O)c1cccn1CC(=O)NCC1CCCO1 (stereo not drawn)	-0.7	-0.48
4	NS(=O)(=O)c1ccc(CCNC(=O)C2Cc3ccccc3CN2C(=O)c2ccco2)cc1 (stereo not drawn)	1.4	nt
5	COc1ccccc1N1CC(C(=O)N2CCN(S(=O)(=O)c3cccs3)CC2)CC1=O (stereo not drawn)	-0.5	nt
6	CCOc1cc(C2C(C(=O)N3CCOCC3)=C(C)NC3=C2C(=O)CC(C)(C)C3)cc(Br)c1OC (stereo not drawn)	nt	22
7	COc1cc(/C=C2/SC(=O)N(CNc3ccccc3F)C2=O)cc(OC)c1OC	nt	-0.64
8	CCOC(=O)c1c(-c2ccccc2)oc2ccc(OC(=O)COc3c(F)c(F)c(F)c(F)c3F)cc12	nt	0.83
9	CCN(S(=O)(=O)c1ccc(F)cc1)S(=O)(=O)c1c(C)c(C)c(C)c(C)c1C	-0.05	0.18
10	O=C(OCC(=O)N(c1ccccc1)C1CCCCC1)c1ccc(CO)cc1	0.2	nt
11	CNS(=O)(=O)c1ccc(C)cc1	0.15	0.7
12	Cc1ccc(Cl)cc1N1CCN(Cn2sc3ccccc3c2=O)CC1	-2.9	nt
13	CCOc1ccc(-c2cn3c(n2)sc2cc(C(=O)N4CCN(C)CC4)ccc23)cc1	-0.1	8.6
14	O=C(O)CCCNc1nc2ccccc2s1	-2.1	nt
15	FC(F)(F)c1cnc(C(c2ccc(Cl)cc2)c2ncn[nH]2)c(Cl)c1 (stereo not drawn)	nt	0.14
16	COC(=O)/C(C#N)=C/c1cccc(/C=C(\C#N)C(=O)OC)c1	0.4	nt
17	CC(C)NC(=O)c1cc(-c2ccc(O)cc2)on1	1.4	0.4
18	CCOC(=O)c1c(C=O)oc2c(C)cc(OC(=O)c3ccc(S(=O)(=O)N4CCCCC4)cc3)c(Br)c12	nt	0.43
19	CCOc1ccc(-c2[nH]nc3c2C2(C(=O)N(CC(=O)O)c4ccccc42)C(C#N)=C(N)O3)cc1 (stereo not drawn)	nt	0.45
20	CCc1ccc(C2Nc3cccc4cccc(c34)N2)cc1	nt	95
21	O=C(Nc1ccc2c(c1)OCCOCCOCCOCCO2)Nc1ccc2c(c1)OCCOCCOCCOCCO2	nt	0.065
22	CCn1c(CNC(=O)c2cccc(C)c2)nnc1SCC(=O)N1CCc2ccccc21	0.6	nt
23	O=C1CC(c2cccc(Br)c2)c2ccc3ccccc3c2N1 (stereo not drawn)	nt	-0.3
24	CS(=O)(=O)N(CC(=O)NCc1ccncc1)c1ccccc1	-0.5	nt
25	O=C(NC1CCCCC1)c1cc(S(=O)(=O)N2CCOCC2)ccc1Sc1ccc(Br)cc1	nt	0.66
26	C=CCSC1=NC(C)(C)C=C(/C=C/c2c(Cl)cccc2Cl)N1	nt	0.18
27	COc1ccc(C2(CNC(=O)C(c3ccccc3)c3ccccc3)CCOCC2)cc1	0.05	-0.37
28	CCOC(=O)c1cc(=O)c2ccc(OCC(=O)Nc3ccccc3)cc2o1	-0.95	-0.7
29	COC(=O)c1cccc(NC(=O)C=C(C)C)c1	-1.2	0.32
30	CCOC(=O)CSc1nnc(-c2cccc(OC)c2)n1-c1ccccc1	nt	-0.22
31	Cc1nc(C)c(C(=O)NCc2ccc3c(c2)OCO3)s1	-0.3	0.71
32	Cc1cc(/C=N/NC(=O)COc2ccc([N+](=O)[O-])cc2)c(C)n1-c1cccc(C(F)(F)F)c1	nt	0.57
33	Nc1nc(SCc2ccc(Cl)cc2Cl)ns1	-0.6	-0.85
34	Cc1sc(NC(=O)/C=C/c2cccs2)c(C#N)c1C	0.45	nt
35	Cc1[nH]n(-c2cccc(Cl)c2)c(=O)c1C=Nc1ccc([N+](=O)[O-])c([N+](=O)[O-])c1	nt	0.035
36	Cc1occc1C(=O)Nc1ccccc1Cc1ccccc1	-0.25	-0.17
37	COC(=O)C1=C(C)N(C)C(=O)/C1=C\c1ccccc1	-0.15	1.2
38	CC1(C)CC(=O)C(CC(=O)Nc2ccc(S(N)(=O)=O)cc2)=C(O)C1	-0.5	-0.58
39	COc1ccc2[nH]cc(CCNC(=O)OCCn3cccc3)c2c1	nt	-0.075
40	CCOC(=O)c1nnn2c1nc(SCc1ccc(F)cc1)c1ccccc12	-0.05	5.6
41	CCn1cnc2c(cnn2-c2ccccc2)c1=O	-1.5	nt
42	COCCNC(=O)Cc1ccc(F)cc1	-0.9	0.3
43	Cc1nc2cc(C(=O)Nc3ccccc3O)ccc2n1-c1ccccc1	-0.55	nt
44	COC(=O)c1cc(NC(=O)CNc2cc(NC(C)=O)ccc2OC)cc(C(=O)OC)c1	0.85	nt
45	O=C(OCCc1ccc(Cl)cc1)N1CCN(c2ccccc2Cl)CC1	nt	0.18
46	O=c1[nH]c2ccccc2n1C1CCN(S(=O)(=O)c2ccccc2Cl)CC1	nt	0.59
47	Cc1cccc(NC(=O)C2CC(=O)NC(=Nc3ccccc3)S2)c1 (stereo not drawn)	1.7	-1.1
48	COc1ccccc1N1CCN(C(=O)/C=C/c2c(C)nn(-c3ccccc3)c2C)CC1	0.6	nt
49	FC(F)(F)c1nnc(-c2ccccc2)nc1Sc1ccc(Cl)cc1	nt	-0.4
50	Cc1cccc(C(=O)OCC(=O)N2CCCC(C)C2)c1 (stereo not drawn)	0.5	nt
51	O=C(Cc1cccc(CC(=O)c2ccccc2)c1)c1ccccc1	0.45	-0.81
52	Cc1noc(C)c1COC(=O)c1ccccc1NC(=O)Cc1ccccc1	-0.7	nt
53	CC(C)(C)NC(=O)n1ccc(-c2ccc(-n3ccnc3)cc2)n1	2.2	-0.02
54	CC1CN(C)C(C)CC1n1[nH]c(=O)cc1N (stereo not drawn)	-1.2	-0.13
55	CCCN(CCC)S(=O)(=O)c1ccc(C(=O)Nc2cc(C(F)(F)F)ccc2Cl)cc1	-1.1	-0.66
56	Cc1ccccc1NC(=O)c1cc(-c2ccccc2)n(CCCN2CCOCC2)c1C	-0.05	-0.15
57	COc1cc2c(cc1OC)CN(c1nnnn1-c1ccccc1)CC2	-0.2	nt
58	O=c1c2nnn(Cc3ccc(F)cc3)c2ncn1Cc1ccc(F)cc1	2.7	-0.58
59	CC(=O)N1N=C(c2c(-c3ccccc3)c3cc(Cl)ccc3[nH]c2=O)CC1c1ccc(Cl)cc1 (stereo not drawn)	nt	4.2
60	CC1CCCCN1Cc1c(O)ccc2cc(-c3nc4ccccc4s3)c(=O)oc12 (stereo not drawn)	nt	-0.17

# Next part:
entry	SMILES	AID504770	CapD inh
61	CC1(C)OC(=O)N(CC(=O)Nc2ccc(F)cc2)C1(C)O (stereo not drawn)	1.1	0.42
62	COc1ccc(NC(=O)CS(=O)(=O)c2cccc(C(F)(F)F)c2)cc1	nt	0.46
63	CCCOc1cc(C)c(S(=O)(=O)NCCOC)cc1C	-0.95	0.12
64	CSc1ncccc1C(=O)NC(C)(C#N)C(C)C (stereo not drawn)	0.4	1.1
65	COc1ccc(NC(=O)CC(NCc2ccccc2)C(=O)O)cc1 (stereo not drawn)	-0.75	nt
66	COc1ccc(-c2c(C)nn3c(C)cc(C)nc23)cc1OC	-0.45	-0.37
67	CCOC(=O)c1cnc2ccccc2c1Nc1ccc(N2CCOCC2)cc1	0.35	0.36
68	COC(=O)c1ccccc1NC(=O)/C=C/C(=O)O	-0.85	1.7
69	O=C(CSc1ncccn1)Nc1ccc2c(c1)OCCCO2	-0.65	nt
70	COc1ccc(C2=NN(C(=O)c3ccccc3)C(c3ccc(N(C)C)cc3)C2)cc1OC (stereo not drawn)	nt	-0.4
71	CC1(C)NC(=O)N(CN2CCCCC2)C1=O	0.15	nt
72	Cn1c(Sc2c3c(nc4ncnn24)CCC3)nnc1-c1ccccc1	-0.4	-0.58
73	Cc1ccc(C(=O)COC(=O)CN2C(=O)C3CC=CCC3C2=O)cc1C (stereo not drawn)	0.7	0.21
74	CC(C)Cc1nc(SCC(=O)Nc2ccc(S(N)(=O)=O)cc2)n[nH]1	nt	-0.3
75	N#CC(CCN1CCOCC1)(c1ccccc1)c1ccccc1	0.2	0.21
76	O=C1CCc2cc(S(=O)(=O)NCCC(=O)NC3CCCCCCC3)ccc2N1	0.15	0.18
77	Cc1ccc(O)c(NC(=O)c2cccnc2Cl)c1	-0.55	0.73
78	CCN(CC)Cc1cc(Nc2ccnc3cc(Cl)ccc23)ccc1O	nt	-0.93
79	O=C(c1cn(-c2ccccc2C(F)(F)F)nn1)c1ccc(Cl)cc1Cl	nt	0.065
80	Fc1ccc(-n2cc(-c3ccccc3)c3c(NCCC4=CCCCC4)ncnc32)cc1	0.65	0.2
81	O=C(O)c1cnccc1C(F)(F)F	nt	2.3
82	O=C(c1ccco1)N1CCN(C(=O)c2sc3ccccc3c2Cl)CC1	-0.35	-1.2
83	O=C1CC(c2cnc[nH]2)C2(CCCCC2)O1 (stereo not drawn)	-0.7	1.4
84	CSc1nc(N)c(C#N)cc1C#N	-0.6	40
85	COc1ccc(CNCc2ccccc2)cc1	-0.55	-0.56
86	COc1ccc(C(=O)/C=C/Nc2ccc(Cl)cc2F)cc1	1.6	-0.14
87	Brc1ccc(-n2cnnc2)cc1	0.45	0.02
88	COC(=O)COc1ccc(Oc2nc(NCC(C)C)nc(N3CCOCC3)n2)nn1	1.5	-0.025
89	COc1ccc(CNC(=O)COC(=O)Cc2ccc(OC)cc2)cc1	0.95	nt
90	CCn1c(CC(=O)Nc2ccccc2)nnc1SCC(=O)N1CCc2ccccc21	-0.35	nt
91	O=C(c1cc(Cl)c(=O)n(Cc2ccc(Cl)cc2)c1)N1CCOCC1	nt	-0.065
92	Oc1c(Cl)cc(Cl)cc1C=Nc1ccc(OC(F)(F)F)cc1	nt	-1.8
93	c1ccc(CNc2ccncc2)cc1	-0.5	nt
94	CC(C)S(=O)(=O)c1ccc(Cl)cc1	0.05	-0.15
95	CCn1c(SC)nnc1-c1c[nH]c2ccccc12	-0.8	0.025
96	O=C(c1nnc(Cc2ccc(F)cc2Cl)o1)N1CCN(c2ccccn2)CC1	-0.7	0.045
97	CCOC(=O)N1CCC(NC(=O)NCc2noc3ccccc23)CC1	-0.2	6
98	Cc1cc(C)n(C(=O)CNc2ccccc2Cl)n1	1	nt
99	O=C(NC12CC3CC(CC(C3)C1)C2)c1cccnc1	-0.05	0.23
100	Cc1onc(-c2ccccc2Cl)c1C(=O)Nc1ccc(Cl)cc1C(=O)c1ccccc1	nt	-0.31
101	CCOc1ccc(N2C(=O)CS(=O)(=O)C2c2ccccc2Br)cc1 (stereo not drawn)	nt	-0.095
102	CCN(CC1COc2ccccc2O1)C(=O)c1ccc2c(c1)SC1=NS(=O)(=O)CCN12 (stereo not drawn)	1.2	nt
103	O=C(NCCO)c1ccc2snnc2c1	-0.4	-0.02
104	CCn1nc(C)cc1/C(N)=N/OC(=O)c1cc(Cl)cc(Cl)c1	-0.55	0.23
105	Cc1ccc(Cn2c(=O)c3ccccc3n3c(SCC(=O)N(C(C)C)C(C)C)nnc23)cc1	0.1	nt
106	CCC(C)(C)C1CCc2c(sc(NC(=O)c3sc4cc(C)ccc4c3Cl)c2C(N)=O)C1 (stereo not drawn)	nt	-0.45
107	CC(C)CNC(=O)c1ccccc1	0	0.61
108	CN(Cc1cccs1)S(=O)(=O)c1ccc(Br)cc1Cl	-0.85	nt
109	Cc1cccc(C)c1NC1=NCCS1	-0.1	0.52
110	CC1=C(O)C(=O)C=C2C1=CC=C1[C@@]2(C)CC[C@@]2(C)[C@@H]3C[C@](C)(C(=O)O)CC[C@]3(C)CC[C@]12C	0.7	nt
111	CC(C)(C)N1COc2ccc3c4c(oc3c2C1)C(=O)c1ccccc1C4=O	0.55	0.49
112	Cc1cc(C)nc(Oc2ccc(NC(=O)/C=C\C(=O)O)cc2)n1	nt	0.07
113	CC[n+]1c(C)csc1Nc1ccc(C)cc1C	nt	-0.53
114	CCOc1cc(C=NCCN2Cc3ccccc3C2=O)ccc1O	-1.2	-1.1
115	O=C1C2=C(Nc3ccccc3SC2c2ccc3c(c2)OCO3)c2ccccc21 (stereo not drawn)	nt	-1.3
116	Cc1cc(NC(=O)COC(=O)Cc2ccsc2)ccc1Br	-0.7	-0.48
117	CC(=O)NCc1ccc2[nH]c3c(c2c1)CCCC3	0.45	0.51
118	O=C(c1ccccc1)N(Cc1ccc(Cl)cc1)Cc1ccco1	-0.45	0.22
119	O=C(NC(=S)NC1CCCc2ccccc21)c1ccco1 (stereo not drawn)	0.25	nt
120	COc1cccc(OC)c1OC(=O)/C=C/c1ccc(C)o1	-0.35	nt

# Down the list, as entered above:
# Nos. 60 to 69 in AID504770: nt, 1.1, nt, -0.95, 0.4, -0.75, -0.45, 0.35, -0.85, -0.65

# Fetched by compound from the list above (4):
entry	SMILES	AID504770	CapD inh
104	CCn1nc(C)cc1/C(N)=N/OC(=O)c1cc(Cl)cc(Cl)c1	-0.55	0.23
110	CC1=C(O)C(=O)C=C2C1=CC=C1[C@@]2(C)CC[C@@]2(C)[C@@H]3C[C@](C)(C(=O)O)CC[C@]3(C)CC[C@]12C	0.7	nt
101	CCOc1ccc(N2C(=O)CS(=O)(=O)C2c2ccccc2Br)cc1 (stereo not drawn)	nt	-0.095
39	COc1ccc2[nH]cc(CCNC(=O)OCCn3cccc3)c2c1	nt	-0.075

# More records:
entry	SMILES	AID504770	CapD inh
121	CC(Oc1ccc(I)cc1)C(=O)Nc1ccc(S(N)(=O)=O)cc1 (stereo not drawn)	1.6	0.76
122	O=C1C2C(c3ccccc3)OC3(C(=O)c4ccccc4C3=O)C2C(=O)N1c1cccc(C(F)(F)F)c1 (stereo not drawn)	nt	0.48
123	O=c1oc2ccccc2n1Cc1ccc(C(F)(F)F)cc1	0.95	10
124	O=c1[nH]c2ccccc2[n+]([O-])c1-c1ccccc1	-0.75	nt
